Source: PubChem (National Center for Advancing Translational Sciences (NCATS))
VDR inhibitor: inhibitors of human vitamin D receptor. P11473. VDR-SRC2-3 peptide fluorescence polarization, 2 h. Potency, µM, inactives show max response, negative = inhibition, hits mostly inhibitors. 0.93% of 400,000 active. AID 504847; active means well fitted inhibition curve with a large enough effect; further: series mostly up to about 120 µM
Target sequence (P11473 whole entry, looked up): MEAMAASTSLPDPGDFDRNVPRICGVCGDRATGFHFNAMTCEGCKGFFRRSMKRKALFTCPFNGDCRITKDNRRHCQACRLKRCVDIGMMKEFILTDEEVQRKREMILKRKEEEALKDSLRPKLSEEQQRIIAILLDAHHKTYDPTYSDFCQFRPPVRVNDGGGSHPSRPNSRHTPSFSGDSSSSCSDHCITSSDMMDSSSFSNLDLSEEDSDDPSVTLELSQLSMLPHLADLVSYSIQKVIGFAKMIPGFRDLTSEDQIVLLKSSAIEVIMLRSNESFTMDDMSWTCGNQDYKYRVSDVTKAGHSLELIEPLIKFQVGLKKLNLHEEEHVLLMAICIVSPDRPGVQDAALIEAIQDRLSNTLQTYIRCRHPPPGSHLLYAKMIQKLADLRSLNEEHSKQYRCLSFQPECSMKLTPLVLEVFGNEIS
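FP read-out; VDR + SRC2-3 coactivator peptide; 23 nl compound by pintool; 2 h RT incubation; reagents held at 4 deg C, protected from light.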
An asterisk follows results filed as active; & = joins results of further samples; [ ] = dose if it differs, or a comment. On the % scale 0 is the no-effect control and ±100 the full control effect; potency means the concentration at half of the fitted maximal effect. These rows are one share of the data (hit frequency here may not be typical).

No.	VDR inhibitor	Structure
1	-6%	N#Cc1c(NC(=O)CSc2ncn[nH]2)sc2c1CCCCC2
2	6%	CC(C)c1ccc(NC(=O)C(Cc2ccccc2)NS(=O)(=O)c2ccc3c(c2)oc(=O)n3C)cc1 (stereo unspecified)
3	9%	COc1ccc(OC)c(-c2cc(C(=O)N3CCOCC3)no2)c1
4	-2%	COc1ccc(NC(C)=O)cc1NC(=O)CSc1nnc(C2CCCCC2)n1N
5	4%	CN1CCN(c2ccc(NC(=O)c3ccc(Cl)cc3)cn2)CC1
6	-5%	O=C1C=C(c2ccc3ncccc3c2)C[C@@H](c2ccc3c(c2)OCO3)C1
7	-7%	O=C(/C=C/c1c(Cl)cccc1Cl)NCc1ccccc1
8	-19%	COc1ccc(-n2c(NC(=O)c3ccco3)c(C#N)c3nc4ccccc4nc32)cc1
9	-7%	COc1cc(C)ccc1OCCON1C(=O)CCC1=O
10	20%	Cc1sc2ncnc(N3CCC(C(=O)Nc4cc(S(C)(=O)=O)ccc4Cl)CC3)c2c1C
11	-9%	CCCC(=O)Nc1cccc(-c2nc3ncccc3o2)c1
12	8%	COCCCNC(=O)Cn1nnc(-c2ccccc2NC(=O)c2ccc(F)cc2)n1
13	3%	COc1ccc(Cl)cc1C(=O)OCC(=O)N1CCCC(C)C1 (stereo unspecified)
14	12%	Cc1cccc(-n2ncc3c(NCc4ccco4)ncnc32)c1
15	-15%	CCN(CC)CCNC(=O)c1cc2c(=O)oc3ccc(C)cc3c2s1
16	7%	O=C(N/N=C/c1ccccc1OCC(=O)N1CCCC1)C(=O)Nc1ccccc1F
17	-8%	Fc1ccc(NC(=S)NCCN2CCOCC2)cc1
18	5%	COc1ccc(CC2(CO)CCN(C/C=C/c3ccccc3OC)CC2)cc1
19	7%	Cc1cc(-c2nc(C)c(C(=O)NNS(=O)(=O)c3cccc(C(F)(F)F)c3)s2)no1
20	-5%	COc1ccc(-c2[nH]ncc2CN(C)C(C)c2ccncn2)c(F)c1 (stereo unspecified)
21	-23%&19%	COc1cccc(-n2c(C)nc3cc(C(=O)O)ccc32)c1
22	14µM*	COc1cc(O)c(C(=O)/C=C/c2ccccc2)c(OC)c1
23	10%	COc1cc(NC(=O)c2ccc(N)nc2)cc(C(=O)Nc2cccc(C(F)(F)F)c2)c1
24	10%	CC(=O)c1ccc(NC(=O)c2nc(-c3ccc(Cl)cc3)n3c2CCCCC3)cc1
25	1%	COc1ccc(OC)c(/C=N/N=C2\SCC(=O)N2Cc2ccco2)c1

A few values from the entries so far:
Result of entry 23 in VDR inhibitor: 10%
Result of entry 6 in VDR inhibitor: -5%
Result of entry 3 in VDR inhibitor: 9%
Result of entry 12 in VDR inhibitor: 8%

Compounds above containing an NH in an aromatic ring, in the order listed:
No.	VDR inhibitor	Structure
1	-6%	N#Cc1c(NC(=O)CSc2ncn[nH]2)sc2c1CCCCC2
20	-5%	COc1ccc(-c2[nH]ncc2CN(C)C(C)c2ccncn2)c(F)c1 (stereo unspecified)

Returning to the listing, repeating the two entries before the break.
No.	VDR inhibitor	Structure
24	10%	CC(=O)c1ccc(NC(=O)c2nc(-c3ccc(Cl)cc3)n3c2CCCCC3)cc1
25	1%	COc1ccc(OC)c(/C=N/N=C2\SCC(=O)N2Cc2ccco2)c1
26	-2%	CCC(CO)Nc1nc2ccc(Cl)cc2c2ccccc12 (stereo unspecified)
27	-7%	Nc1ncnc2c1ncn2[C@@H]1O[C@H](COP(=O)(O)OP(=O)(O)CP(=O)(O)O)[C@@H](O)[C@H]1O
28	3%	NC(=O)c1cc2ccccc2o/c1=N/NC(=O)c1cccs1
29	-15%	O=C(COc1ccc(F)cc1Br)N1CCN(S(=O)(=O)/C=C/c2ccccc2)CC1
30	-2%&3%	CC[N+](CC)(CC)CC(=O)Nc1c(C)cccc1C
31	-10%	CC(C)NC(=O)C(=O)NCCN1CCN(C(=O)c2ccc(C(C)(C)C)cc2)CC1
32	-14%	COC(=O)c1ccc(COn2nnc3ccccc32)cc1
33	0%	COCCn1c(C)cc(O)c(C(c2ccccc2Cl)N2CCN(c3ccccc3)CC2)c1=O (stereo unspecified)
34	-9%	CCOC(=O)c1c(-c2ccco2)csc1NC(=O)COC(=O)c1cnccn1
35	13%	Cc1cccc(N2C(=O)c3ccc(C(=O)Nc4cccc(C(=O)O)c4)cc3C2=O)c1
36	-1%	COc1ccccc1Nc1ccc(Nc2ccccc2OC)nn1
37	-10%	CCOC(=O)N1CCN(C(=O)CCN2C(=O)c3ccccc3S2(=O)=O)CC1
38	-2%	CC(Nc1ccc(Cl)cc1)C(=O)NN (stereo unspecified)
39	-5%&16%	CCn1c(COc2cccc(C)c2)nc2ccccc21
40	10%	CC(C)C1=NOC(C(=O)N2CCC(N3CCC(C(=O)N4CCOCC4)CC3)CC2)C1 (stereo unspecified)
41	-21%	Cc1ccc(/C=N/NC(=O)C(c2ccncc2)N2CCOCC2)cc1 (stereo unspecified)
42	-4%	CCC(=O)Nc1ccc2c(c1)nc(CCN1CCCCC1)n2C
43	4%	CC(c1ccco1)N(C(=O)C12CC3(C)CC(C)(CC(C)(C3)C1)C2)c1ccccn1 (stereo unspecified)
44	0%	COc1ccc(NC(=S)/N=C(\N)Nc2nc(C)c3ccccc3n2)cc1
45	-3%	COCCn1c(SCC(=O)NNC(=O)Cc2ccccc2)nc2ccccc2c1=O
46	4%	O=C(c1ccc(F)cc1)N1CCC(c2nc3ccccc3s2)CC1
47	-10%	Cc1nnc(SCC(=O)NNC(=O)C(C)C)[nH]c1=O
48	-12%	O=C(Nc1ccc(N2CCN(C(=O)c3ccccc3)CC2)c(Cl)c1)c1ccc(Br)o1
49	6%	CC1CC2(CCCC2)N(C(=O)c2ccccc2)Cc2ccccc21 (stereo unspecified)
50	-1%	CN1c2ccccc2C(=O)NC1c1ccc([N+](=O)[O-])s1 (stereo unspecified)
51	-2%	Cc1ccc(CNC(=O)CCCn2c(=O)c3ccccc3n(CC(=O)Nc3ccc(C)cc3)c2=O)cc1
52	1%	COC(=O)c1cc(NC(=O)c2ccc3c(c2)N(Cc2cccc(Cl)c2)C(=O)c2ccccc2S3=O)cc(C(=O)OC)c1 (stereo unspecified)
53	-13%	CCOC(=O)COc1c(/C=N\O)cc(Cl)cc1OC
54	37%[activator]	Cc1c(Cl)cccc1NC(=O)NCCCN1CCCC1=O
55	-7%	CCN(C(=O)COC(=O)CN1C(=O)c2ccccc2C1=O)c1ccccc1
56	6%	Cc1ccc(OCC(=O)N/N=C/c2cccn2C)cc1C
57	-3%	COc1ccc(Cl)c(OC)c1C(=O)NC(=O)Nc1nc(C)nc(C)n1
58	-6%	Cc1ccc(OCCC(=O)OCC(=O)NC(=O)c2ccccc2)cc1
59	13%	O=C(C1CCCC1)N(c1ccccc1)C1C=CS(=O)(=O)C1 (stereo unspecified)
60	0%	Cc1cc2cc3c(cc2nc1SCC(=O)Nc1ccccc1)CCC3
61	10µM*	Cc1ccc(S(=O)(=O)/N=C2/C=C(Sc3ncn[nH]3)C(=O)c3ccccc32)cc1
62	-8%	O=[N+]([O-])c1c(Nc2ccccc2O)ccc2nonc12
63	14%	O=C(NCCO)c1cc2ccccc2cc1O
64	-5%	O=C(NC(=S)N1CCCCC1c1cccnc1)c1ccc(F)cc1 (stereo unspecified)
65	-8%	COc1ccccc1CNS(=O)(=O)c1ccc(-n2cnnn2)c(C)c1
66	-2%	O=C(Nc1ccccc1)[C@@H]1CC=C[C@@H]2CCN(Cc3ccc(Cl)c(Cl)c3)C(=O)[C@@H]21
67	-6%	COc1ccccc1NS(=O)(=O)c1cc(NC(=O)Nc2ccccc2)ccc1N1CCCCC1
68	7%	Cc1ccc(C(=O)Nc2ccccc2Cl)cc1
69	-19%	CCS(=O)(=O)N1CCC(N2CCN(c3ccccc3)CC2)CC1
70	4%	O=C(O)c1ccc(C(=O)c2ccc3c(c2)C(=O)N(CC2CCCO2)C3=O)cc1 (stereo unspecified)
71	-17%	Cc1sc2ncnc(Sc3ccccc3C(=O)Nc3ccc(C#N)cc3)c2c1C
72	18%	CC(C)(C)OC(=O)N1CCC(c2c(C(=O)NCCN3CCC(Cc4ccccc4)CC3)cnn2-c2cccc(Cl)c2)CC1
73	-17%	COC(=O)c1ccccc1Oc1ccc(NC(=O)CCCl)cc1
74	4%	[N-]=[N+]=CC(=O)CC(c1ccccc1)N1C(=O)c2ccccc2C1=O (stereo unspecified)
75	11%	COc1ccc(CCC(=O)NCc2cn3ccsc3n2)cc1

4 entries already listed, ordered by formula weight, low to high.
No.	VDR inhibitor	Structure
59	13%	O=C(C1CCCC1)N(c1ccccc1)C1C=CS(=O)(=O)C1 (stereo unspecified)
74	4%	[N-]=[N+]=CC(=O)CC(c1ccccc1)N1C(=O)c2ccccc2C1=O (stereo unspecified)
69	-19%	CCS(=O)(=O)N1CCC(N2CCN(c3ccccc3)CC2)CC1
70	4%	O=C(O)c1ccc(C(=O)c2ccc3c(c2)C(=O)N(CC2CCCO2)C3=O)cc1 (stereo unspecified)

New compounds follow
No.	VDR inhibitor	Structure
76	13%	CCc1nn(CC(=O)N2CCC(C)CC2)c(=O)c2cc3occc3n12
77	3%	O=C(CN1CCc2[nH]c3ccccc3c2C1)N1CCCCC1
78	8%	Cc1ccc(S(=O)(=O)NCc2ccc(C(=O)NCCCN3CCC(Cc4ccccc4)CC3)cc2)cc1
79	-2%	CC(C(=O)Nc1ccccc1F)N1CCN(S(=O)(=O)c2ccc(C(F)(F)F)cc2)CC1 (stereo unspecified)
80	-6%	CCOC(=O)c1ccc(Nc2c(-c3ccc(O)c(OC)c3)nc3nc[nH]n23)cc1
81	8%	CCOC(=O)c1sc(NC(=O)CSc2nncn2C)nc1C
82	6%	COc1ccc(NC(=O)C2CCCN(S(=O)(=O)c3ccc4c(c3)CCCC(=O)N4)C2)c(OC)c1 (stereo unspecified)
83	13%	COc1ccc(-c2nc3n(c2Br)CCC3)cc1
84	-9%	CC(OC(=O)CNC(=O)c1ccc(Cl)c([N+](=O)[O-])c1)C(=O)NC1CCCCC1C (stereo unspecified)
85	-11%	COc1ccccc1-n1nc(-c2ccccc2)c2cnc3cc(C(F)(F)F)ccc3c21
86	-7%	CCn1ncc(CNC(=O)CCSc2nc(-c3ccco3)cc(C(F)(F)F)n2)c1C
87	-11%	CC(=O)c1ccc(S(=O)(=O)Nc2ccc(-n3cnnn3)cc2)cc1
88	-11%	CCOc1cc(-c2nc(-c3ccncc3)no2)cc(OCC)c1OCC
89	-8%	O=c1c2ccccc2nc(/C=C/c2cccc(Br)c2)n1CCCO
90	-14%	O=C(NCC(=O)N(c1ccc(F)cc1)C(C(=O)NC1CCCCC1)c1cccnc1)c1ccco1 (stereo unspecified)
91	1%	O=C(Nc1ccccc1C(=O)N1CCOCC1)c1ccc(F)cc1
92	-20%	CCOC(=O)c1ccc(-n2cccc2/C=C2\NC(=O)NC2=O)cc1
93	-4%	COC(=O)c1c(N2C(=O)CC(Sc3ccccc3C(=O)O)C2=O)sc2c1CCCC2 (stereo unspecified)
94	-10%	Cc1ccc(N(C)C2=NC(=O)CS2)cc1Cl
95	-1%	O=C(COC(=O)CNC(=O)c1ccccc1Cl)NC1CCCC1
96	-5%	O=C(c1ccc2c(c1)OCO2)N1CCN(c2ccc(C(F)(F)F)cn2)CC1
97	23%	COc1ccc(OC)c(C(c2nnnn2C2CCCC2)N2CCN(c3ccc(F)cc3)CC2)c1 (stereo unspecified)
98	5%	Nn1c(CN2CCCCC2)nc2ccccc2c1=O
99	-16%	O=C1Nc2ccc(Br)cc2C1(O)c1ccc(F)cc1 (stereo unspecified)
100	-14%	COc1ccc(C(=O)Cc2cc3cccc(OC)c3oc2=O)cc1
101	-6%	Cc1ccccc1N1CCN(Cc2nc(Cc3ccccc3)no2)CC1
102	-27%	COc1ccc(-c2cc3nnc(-c4ccccc4)nc3s2)cc1
103	-16%	Cc1ccc(/C(O)=C2/C(=O)C(=O)N(CCN3CCOCC3)C2c2ccccn2)cc1 (stereo unspecified)
104	-4%	O=Cc1cn(-c2ccccc2)nc1-c1cc2cc(O)ccc2oc1=O
105	14%	Cc1csc2ncc(C(=O)Nc3ccon3)c(=O)n12
106	13%	CC(C)c1cnc2c(c1SCC(=O)Nc1ccccc1C(F)(F)F)c(=O)n(C)c(=O)n2C
107	-3%	Cc1cnn(-c2nc(-c3ccccc3)cc(-c3ccccc3)n2)c1
108	6%	COC(=O)C1=C(C(=O)OC)[C@@H]2N(Cc3ccccc3)c3ccccc3[C@@]23C[C@@H](C(=O)OC)N(C(=O)NC(C)(C)C)C3=N1
109	-7%	O=C(CS(=O)(=O)Cc1ccccc1)NCCc1ccc(F)cc1
110	5%	Cc1nc(Cl)sc1C(=O)Nc1ccc(C(C)(C)C)cc1
111	3%	CCN(CC)S(=O)(=O)c1cccc(C(=O)NCCCn2ccnc2)c1
112	-8%	CCOC(=O)Nc1ccc2c(CN3C(=O)NC4(CCCC4)C3=O)cc(=O)oc2c1
113	-11%&1%	COc1ccccc1Nc1nc(N2CCOCC2)nc(N2CCOCC2)n1
114	-13%	Cc1ccc(SCC(=O)OCC(=O)NCCCc2ccccc2)cc1
115	4%	COc1ccc(NC(=O)CSc2nnc(-c3cccnc3)n2Cc2ccco2)c(OC)c1
116	-3%	COC1=CC(=O)OC12CCCCC2
117	-1%	Cc1cc(C)c(NC(=O)NC(=O)c2cccc(F)c2)c(C)n1
118	6%	Cc1cc(C)c2oc(C(=O)NCc3ccccc3)cc(=O)c2c1
119	0%	C=C(C)CN1C(=O)c2ccccc2C1=O
120	-2%	Cc1cc(C)cc(NC(=O)CS(=O)(=O)c2cccc3nsnc23)c1
121	-29%	O=C(CSc1nnc(-c2ccco2)n1CC1CCCO1)c1ccc(F)cc1 (stereo unspecified)
122	5%	COc1ccc(C(C(=O)NC2CCCC2)N(C(=O)c2ccco2)c2ccc3c(c2)OCO3)cc1OC (stereo unspecified)
123	-2%	O=C(/C=C/c1cc2c(cc1Br)OCO2)NCc1ccc(Cl)cc1
124	-2%	CN(Cc1ccccc1F)c1ccc(S(=O)(=O)N2CCCC2)cn1
